Compound activity (PubChem)
Cruzain Triton: blocks cruzain activity in presence of Triton detergent. P25779. purified cruzain, Z-FR-AMC fluorescence, 0.01% Triton. Potency, µM, inactives show max response, negative = inhibition, most hits filed as inhibitors. 200,000 tested, 0.43% active;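 also: plate controls were neutral wells for no effect and buffer without enzyme for full effect; nearly all actives have a fitted effect of over 40% in size; top concentration of the series not given in the record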
Target sequence (P25779 123-467 limits assumed): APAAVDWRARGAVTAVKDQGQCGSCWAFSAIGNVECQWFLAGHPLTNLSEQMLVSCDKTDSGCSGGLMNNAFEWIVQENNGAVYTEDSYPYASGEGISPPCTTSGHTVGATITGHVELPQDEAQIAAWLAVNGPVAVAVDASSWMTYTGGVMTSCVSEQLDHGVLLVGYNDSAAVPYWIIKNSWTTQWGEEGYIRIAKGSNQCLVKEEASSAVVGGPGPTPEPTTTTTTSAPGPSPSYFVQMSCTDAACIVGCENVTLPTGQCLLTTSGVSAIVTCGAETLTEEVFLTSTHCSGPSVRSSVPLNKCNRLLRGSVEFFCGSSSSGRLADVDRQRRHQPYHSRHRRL
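Read-out: AMC fluorescence (360 nm excitation, 450 nm emission), four reads over 2 min, first-to-third difference used. Conditions: cruzain 1.5 nM, Z-FR-AMC 2 uM, pH 5.5 acetate, 5 mM DTT, 0.01% Triton X-100.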
SARS PLP yeast: inhibitors of SARS-CoV papain-like protease in yeast; S. cerevisiae expressing SARS-CoV PLpro, growth rescue; control for the full effect not named in the record; Potency, µM (series often up to 32.9 µM), for inactives: at the top dose activity, positive = growth rescue; 330,000 tested, 0.19% active; active means well fitted rising curve with a large enough effect; inconclusive means small, poorly fitted or top-dose-only effect; inactive means no such curve, though single readings can be large or run the other way; also: 0% is about no effect; nearly all actives have a fitted effect of over 55% in size; growth read by luminescence after 48 h
MARV entry inh: Marburg virus entry inhibition; Marburg virus pseudotyped entry inhibition, cell reporter; control for the full effect not named in the record; about a third of the inactives were read at about 46 µM; Potency, µM (titrated, usually from 37.8 µM), for the others: at the top dose activity change, negative = inhibition, most hits filed as inhibitors; 300,000 tested, 1.8% active; active = well fitted inhibition curve with a large enough effect; inconclusive = small, poorly fitted or top-dose-only effect, or effect the other way; inactive = flat fitted curve, though single readings scatter; tested in HEK293 cells; about a fifth of its hits are not listed in these tables; also: % is scaled to controls: 0 for no effect and ±100 for the full control effect; luciferase read-out
LASV entry inh: inhibitors of Lassa virus binding or cell entry; Lassa virus pseudotype entry inhibition, cell reporter; control for the full effect not named in the record; Potency, µM (titrated, usually from 37.9 µM), for the others: top-dose activity change, negative = inhibition, hits mostly inhibitors; 300,000 tested, 1.2% active; AID 540256; active means well fitted inhibition curve with a large enough effect; inconclusive means small, poorly fitted or top-dose-only effect, or effect the other way; inactive means flat fitted curve, though single readings scatter; tested in HEK293 cells; also: % is scaled to controls: 0 for no effect and ±100 for the full control effect; nearly all actives have a fitted effect of over 50% in size; luciferase read-out
Cruzain inh noDet: cruzain (T. cruzi) inhibition without detergent | AID 1476 | purified cruzain, Z-FR-AMC fluorescence, no detergent | P25779 | Potency, µM, without a hit: max response, negative = inhibition, usual class: inhibitors | 200,000 tested, 2.3% active;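 also: plate controls were enzyme without inhibitor for no effect and buffer without enzyme for full effect; nearly all actives have a fitted effect of over 40% in size; top concentration of the series not given in the record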
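Detergent-free condition (0.00005% Triton X-100) in acetate buffer pH 5.5 with DTT. 1.5 nM enzyme and compound were pre-mixed 15 min, then 2 uM Z-FR-AMC substrate added; reaction progress from fluorescence change between first and third reads (60 s).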
RE007 growth inh: less growth of the S. pombe RE007 Vpr strain. S. pombe RE007 Vpr strain, BacTiter-Glo ATP luminescence, 24 h; control for the full effect not named in the record. Potency, µM (doses to about 92.2 µM), without a hit: top-dose activity change, negative = less growth. AID 651644. 360,000 tested, 0.21% active; active = well fitted falling curve with a large enough effect; inconclusive = small, poorly fitted or top-dose-only effect; inactive = no such curve, though single readings can be large or run the other way;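 also: % is scaled to controls: 0 for no effect and ±100 for the full control effect; nearly all actives have a fitted effect of over 50% in size; the assay follows cell death caused by Vpr and the record does not say whether a fall means rescue or toxicity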
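Fission yeast strain RE007, carrying one chromosomally integrated HIV-1 vpr copy, was seeded at OD 0.01 in PMG+AL medium with 23 nL pinned compound. After 24 h at 30 °C and 99% humidity, viability was read by BacTiter-Glo luminescence.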
NS1 inh: influenza NS1 inhibition. 270,000 tested, 0.4% active. Potency, µM (highest dose often 46.1 µM), for inactives: at the highest dose activity, positive = more growth. S. cerevisiae slowed by influenza A NS1, growth recovery by OD600; active means well fitted rising curve with a large enough effect; inconclusive means small, poorly fitted or top-dose-only effect; inactive means no such curve, though single readings can be large or run the other way; also: nearly all actives have a fitted effect of over 50% in size
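Growth recovery, yeast-based: influenza A NS1 expressed in S. cerevisiae causes slow growth, and suppressors are detected by OD600. The parent strain without NS1 is used as positive control.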
StopGo reporter: FMDV 2A StopGo reporter, luciferase signal; Potency, µM (highest dose often 57.9 µM), for the others: top-dose signal change, negative = less light; human cells with a luciferase reporter of 2A StopGo recoding; control for the full effect not named in the record; AID 1159524; 410,000 tested, 1.2% active; active = well fitted falling curve with a large enough effect; inconclusive = small, poorly fitted or top-dose-only effect; inactive = no such curve, though single readings can be large or run the other way; tested in HEK293T cells; also: % is scaled to controls: 0 for no effect and ±100 for the full control effect; nearly all actives have a fitted effect of over 45% in size; luciferase light after 4 h
Starred values were filed as active, the others as inactive; ? = inconclusive; / = no result given; [ ] = remark or other dose. Unless noted, calls follow the shape of the dose curve; as a rule, active = well fitted curve in the direction sought with a large enough effect; inconclusive = small, poorly fitted or top-dose-only effect, or another doubt; inactive = no such curve, though single readings can be large; an effect the other way counts as inactive or inconclusive. Potency is read from the fitted curve at half-maximal effect.

The line under a structure holds: Cruzain Triton | SARS PLP yeast | MARV entry inh | LASV entry inh | Cruzain inh noDet | RE007 growth inh | NS1 inh | StopGo reporter
- CC(=O)Nc1ccc(NC(=S)Nc2ccccc2)cc1
  -5.0% | -7% | 17% | 16% | -5% | 2% | 8% | 12%
- COc1ccc(C(C)NC(=O)Cc2ccc(Br)cc2)cc1 (stereo unspecified)
  -11% | 15% | -4% | 4% | -6% | -5% | 5% | -10%
- Cc1cc(Cl)c2oc(C(=O)N(C)C(C)c3ccccn3)c(C)c2c1 (stereo unspecified)
  / | -6% | 15% | 19% | / | 2% | -51% | 83%[activator]
- COc1ccc(C)cc1NC(=O)N1CCCn2nc(C)cc21
  0.0% | / | / | 7%[46.1 µM] | -11% | / | / | -6%
- CN(CCCN1CCCCC1)C(=O)CCc1nnc(C2CCCCC2)o1
  / | -1% | ? | 16% | / | -8% | -3% | -9%
- COc1ccc(CCN(Cc2cc3ccc(C)cc3[nH]c2=O)C(C)=O)cc1OC
  / | -1% | -6%[46.1 µM] | -8% | / | 7% | 1% | -24%
- Cc1ccccc1Cn1c(CN2CCN(c3cc(Cl)ccc3C)CC2)nc2c1c(=O)[nH]c(=O)n2C
  -0.5% | / | 4%[46.1 µM] | 5%[46.1 µM] | 12% | / | / | ?
- O=C(CN(Cc1ccccc1F)C(=O)c1csnn1)NCc1ccc2c(c1)OCO2
  / | -1% | -8%[46.1 µM] | 2.8µM* | / | 7% | 0% | -5%
- COc1ccc(C(=O)Nn2c(C)nc3ccccc3c2=O)cc1Br
  / | 0% | / | / | / | 18% | 3% | ?
- CCn1cc(C(=O)O)c(=O)c2cc(F)c(N3CCN(C(=S)NC(=O)c4cc(OC)cc(OC)c4)CC3)cc21
  / | 21% | / | / | / | 20% | 26% | ?
- CC(=O)c1sc(NC(=O)C2CC(=O)N(Cc3ccccc3)C2)nc1-c1ccccc1 (stereo unspecified)
  / | -5% | -5% | -17% | / | -19% | / | ?
- COc1ccc(Cn2c(CCC(=O)Nc3ccccc3)nc3cccnc32)cc1
  2.3% | 1% | -29% | -3% | -6% | 13% | 3% | -16%
- CCOc1ccc(-n2c(Cc3cc(=O)[nH]c(=O)[nH]3)nnc2SC(C)C)cc1
  0.4% | -8% | 7% | -2% | 4% | 9% | ? | 22%
- O=S(=O)(Nc1nnc(-c2ccccc2)s1)c1ccc(Cl)cc1
  -16% | / | 7% | 6% | 0% | -17% | -108% | 14%
- O=C1C2CCCN2C(c2cccs2)N1c1ccc(F)cc1 (stereo unspecified)
  / | 2% | -6%[46.1 µM] | 12%[46.1 µM] | / | 4% | / | 49%[activator]
- CCOC(=O)CCC(=O)NCc1ccc2[nH]c(C)cc2c1
  -2.3% | -14% | 18% | -14% | -1% | 3% | 10% | 11%
- CSc1nc(-c2ccccc2)nn1C(=O)c1ccc(C)cc1
  -1.8% | 2% | 5% | ? | -7% | -17% | -18% | 5%
- O=c1oc(-c2cc3ccccc3o2)nc2sc3c(c12)CCCC3
  4.0% | 3% | ? | ? | ? | -8% | -14% | /
- CC(C)[C@@H](NC(=O)C1CCN(C(=O)[C@@H]2CCCN2C(=O)OC(C)(C)C)CC1)C(=O)NCc1ccc(F)cc1
  / | 0% | / | / | / | -20% | -27% | -26%
- Cc1ccc(NC(=O)c2c(C)oc3ncn(CC(C)C)c(=O)c23)nc1
  -1.5% | / | / | 27%[46.1 µM] | -6% | / | / | -1%
- COc1ccccc1NS(=O)(=O)N(C)C
  -0.6% | -3% | -6% | 11% | -4% | -1% | 10% | -19%
- Cc1ccccc1CNC(=O)c1ccc(NC(=O)c2nsc3ccccc23)cc1
  -2.9% | / | / | -1%[46.1 µM] | ? | / | / | -7%
- CCc1cccc(NC(=O)C2CCCN(S(=O)(=O)c3ccc4[nH]c(=O)ccc4c3)C2)c1 (stereo unspecified)
  / | 0% | / | / | / | 9% | -7% | -11%
- Cc1cccc(N2CCN(CC(=O)NCc3ccccc3)CC2)c1C
  / | 2% | / | / | / | 2% | -16% | -18%
- O=C(CSc1ccc2c(c1)OCCO2)NCc1ccco1
  ? | -11% | -7% | 6% | ? | -13% | 4% | 25%
- O=C(Nc1nc2ccc(S(=O)(=O)N3CCCCC3)cc2s1)c1ccncc1
  -7.5% | 1% | -9% | 13% | ? | 5% | 10µM* | -16%
- COc1ccc(C(=O)N2CCCCC2CCN2CCOCC2)cc1 (stereo unspecified)
  1.2% | / | -4%[46.1 µM] | -2%[46.1 µM] | -12% | / | / | -18%
- CCOC(=O)C(C)Sc1nc(N)c(NC(=O)c2ccc(OC)c(OC)c2)c(=O)[nH]1 (stereo unspecified)
  -0.9% | -2% | / | / | 0% | 8% | -34% | -13%
- CCOC(=O)c1c(C)[nH]c(C(=O)OCC(=O)N2CCc3ccccc32)c1C
  2.8% | 0% | -13% | -1% | 18% | 8% | -13% | -2%
- Cc1cccc(NC(=S)NCc2ccc3c(c2)OCO3)c1C
  0.4% | 28% | ? | 1% | -2% | 2% | -9% | -3%
- COCCCNC(=O)CSc1nc2c(sc3ccccc32)c(=O)n1CCCC(=O)NCCOC
  -0.5% | / | 7%[46.1 µM] | -6%[46.1 µM] | ? | / | / | -12%
- CC1Cc2ccccc2N1S(=O)(=O)c1cccc(C(=O)N2CCCCC2)c1 (stereo unspecified)
  / | -2% | ? | -30% | / | 4% | / | 17%
- COc1ccc(C)cc1NC(=O)C1CC(=O)N(Cc2ccco2)C1 (stereo unspecified)
  5.6% | 5% | -4%[46.1 µM] | 2% | 4% | -8% | 0% | 1%
- COc1cc2c(=O)n(-c3ccc(C)cc3)c(=O)n(CC(=O)c3ccc4c(c3)OCO4)c2cc1OC
  -4.3% | 7% | 4% | -17% | ? | -9% | -15% | -9%
- COCCn1c(SCC(=O)Nc2nnc(C)s2)nnc1-c1c[nH]c2ccccc12
  4.9% | -11% | 3% | 3% | -9% | -22% | -4% | -4%
- Nc1nonc1C(=O)NCCNCc1c(OCc2ccccc2F)ccc2ccccc12
  -1.4% | 0% | ? | ? | 1% | -19% | 1% | ?
- Cc1cccc(CCNC(=O)C2CCC(CNS(=O)(=O)c3ccccc3)CC2)c1 (stereo unspecified)
  0.6% | / | / | -7%[46.1 µM] | -3% | / | / | -19%
- CC1CCc2nn(CC(=O)Nc3cccc(C(F)(F)F)c3)c(=O)cc2C1 (stereo unspecified)
  -0.2% | / | / | -11%[46.1 µM] | 0% | / | / | -22%
- CCS(=O)(=O)CCSc1nc2ccccc2o1
  3.7% | 3% | -1% | 18% | -8% | -8% | 10% | 10%
- O=C1NC2(CCCCCC2)N=C1c1ccc(F)cc1
  -1.7% | -13% | 9% | -6% | 2% | 1% | -1% | 0%
- O=C(Oc1ccc2ccccc2c1)c1ccco1
  -7.3% | -4% | -21% | -4% | -5% | ? | -36% | 23%
- Cc1cc(C(=O)COc2cccnc2[N+](=O)[O-])c(C)n1Cc1cccs1
  / | -1% | ? | ? | / | -12% | / | 7.9µM*
- CCOc1ccc(C(=O)Nc2cc(C)on2)cc1
  0.2% | 5% | ? | ? | 2% | -25% | -17% | 30%[activator]
- O=C(Nc1nc(-c2ccncc2)cs1)c1ccco1
  -12% | -3% | ? | 3% | 16µM* | ? | -45% | 0%
- Cc1cccc(NC(=O)CNC(=O)COC(=O)c2ccc(C(C)(C)C)cc2)c1C
  / | -10% | -1% | 0% | / | -6% | / | -17%
- Cc1c(C(=O)N2CCc3ccccc3C2)oc2ccccc12
  / | 6% | / | / | / | 3% | -33% | 38%[activator]
- CN(C1CCCCC1)S(=O)(=O)c1ccc2c(c1)c(=O)c(C(=O)NCCN1CCCC1)cn2C
  -4.6% | -3% | 3% | / | -4% | -10% | -3% | 16%
- CCOc1ccc(-n2c(SCc3ccc([N+](=O)[O-])cc3)nnc2-c2ccccc2)cc1
  -8.0% | -20% | ? | ? | 8% | -8% | 13% | ?
- COc1ccc(C(=O)N2CCC3(CC2)NCCc2[nH]cnc23)cc1OC
  / | -1% | / | / | / | 2% | -3% | -19%
- O=C(Nc1cccnc1)c1ccc([N+](=O)[O-])o1
  / | 0% | / | / | / | 6% | -6% | -24%
- CC(=O)N1N=C(c2ccco2)CC1c1ccco1 (stereo unspecified)
  / | -3% | 3% | -2% | / | -1% | 13% | 11%
- CC(=O)c1cc2c(cc1N(C(=O)c1ccco1)C(C(=O)NC1CCCC1)c1ccccc1F)OCO2 (stereo unspecified)
  / | 0% | -19%[46.1 µM] | 5% | / | -6% | -14% | 14%
- Cc1ccc(S(=O)(=O)CNC(=S)c2ccc3ccccc3c2)cc1
  -7.1% | -8% | 17% | -3% | -10% | -2% | -15% | -10%
- CN(CC1CCCN(CCc2ccc(Cl)cc2)C1)C(=O)c1ccco1 (stereo unspecified)
  / | / | 0% | 16% | / | 2% | / | -18%
- Cc1cccc(NC(=S)N(CCN(C)C)Cc2cc3cc(C)cc(C)c3[nH]c2=O)c1
  -3.9% | 18% | ? | -30% | -4% | 3% | 4% | -29%
- O=C(COC(=O)/C=C/c1ccccc1)NCCc1ccc(F)cc1
  / | 0% | -5%[46.1 µM] | 23%[46.1 µM] | / | -12% | / | -3%
- CCc1ccccc1NC(=O)CNC1CCCCC1
  / | 0% | 22%[46.1 µM] | 12%[46.1 µM] | / | 3% | 3% | 1%
- N=c1sc2ccccc2n1-c1ccccc1
  -1.2% | 1% | -1% | 6% | -7% | -3% | 6% | -23%
- Fc1ccccc1-n1ncc2c1ncn1nc(-c3ccccc3Cl)nc21
  -0.4% | / | ? | 1%[46.1 µM] | -16% | / | / | 39%[activator]
- COC(=O)c1ccc(Cn2cc(C(F)(F)F)ccc2=O)cc1
  / | -1% | -28%[46.1 µM] | 1% | / | 63% | -3% | -7%
- CC(C)=NOc1nc(N(C)C)nc(N(C)C)n1
  -3.4% | 14% | ? | -2% | 6% | -2% | 14% | -8%
- Nc1cc(SCc2ccc([N+](=O)[O-])cc2)ncn1
  / | / | ? | 0%[46.1 µM] | / | -9% | / | -3%
- COc1ccc(-c2nnc(SCc3cccc(C)c3)n2N)cc1
  2.0% | 5% | 0% | 6% | -6% | 6%[3.69 µM] | -10% | -6%
